High-throughput results from PubChem BioAssay.
RE007 growth inh = qHTS Assay for Inhibitors of the HIV-1 protein Vpr; AID 651644, 2012; S. pombe RE007 Vpr strain, BacTiter-Glo ATP luminescence, 24 h; control for the full effect not named in the record; Potency, µM (top dose mostly 92.2 µM), for inactives: at the top dose activity change, negative = less growth; 0.21% of 360,000 active; active = well fitted falling curve with a large enough effect; inconclusive = small, poorly fitted or top-dose-only effect; inactive = no such curve, though single readings can be large or run the other way;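 also: % is scaled to controls: 0 for no effect and ±100 for the full control effect; nearly all actives have a fitted effect of over 50% in size; the assay follows cell death caused by Vpr and the record does not say whether a fall means rescue or toxicity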
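Fission yeast RE007 carrying one integrated HIV-1 vpr copy, seeded at OD 0.01 in PMG+AL medium with 23 nL pinned compound. Grown 24 h at 30 degrees; viability read by BacTiter-Glo luminescence after 5 min.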
Lassa entry inh = qHTS for Inhibitors of binding or entry into cells for Lassa Virus | 1.2% of 300,000 active | Potency, µM (series often up to 37.9 µM), inactives show at the highest dose activity change, negative = inhibition, actives largely listed as inhibitors | AID 540256, 2011 | Lassa virus pseudotype entry inhibition, cell reporter; control for the full effect not named in the record; active means well fitted inhibition curve with a large enough effect; inconclusive means small, poorly fitted or top-dose-only effect, or effect the other way; inactive means flat fitted curve, though single readings scatter; tested in HEK293 cells; also: % is scaled to controls: 0 for no effect and ±100 for the full control effect; nearly all actives have a fitted effect of over 50% in size; luciferase read-out
MARV entry inh = qHTS for inhibitors of binding or entry into cells for Marburg Virus; Marburg virus pseudotyped entry inhibition, cell reporter; control for the full effect not named in the record; about a third of the inactives were read at about 46 µM; Potency, µM (titrated, usually from 37.8 µM), without a hit: top-dose activity change, negative = inhibition, actives largely listed as inhibitors; 1.8% of 300,000 active; AID 540276, 2011; active = well fitted inhibition curve with a large enough effect; inconclusive = small, poorly fitted or top-dose-only effect, or effect the other way; inactive = flat fitted curve, though single readings scatter; tested in HEK293 cells; about a fifth of its hits are not listed in these tables; also: % is scaled to controls: 0 for no effect and ±100 for the full control effect; luciferase read-out
2A StopGo = High Throughput Screening for Foot and Mouth Disease Virus Antivirals; human cells with a luciferase reporter of 2A StopGo recoding; control for the full effect not named in the record; Potency, µM (top dose mostly 57.9 µM), inactives show at the highest dose signal change, negative = less light; 1.2% of 410,000 active; active = well fitted falling curve with a large enough effect; inconclusive = small, poorly fitted or top-dose-only effect; inactive = no such curve, though single readings can be large or run the other way; tested in HEK293T cells; also: % is scaled to controls: 0 for no effect and ±100 for the full control effect; nearly all actives have a fitted effect of over 45% in size; luciferase light after 4 h
Cruzain inh Det = qHTS Assay for Promiscuous and Specific Inhibitors of Cruzain (with detergent) | Cruzipain (Trypanosoma cruzi), P25779 | Potency, µM, without a hit: max response, negative = inhibition, most hits filed as inhibitors | purified cruzain, Z-FR-AMC fluorescence, 0.01% Triton | 0.43% of 200,000 active; active = well fitted curve in the direction sought with a large enough effect; inconclusive = small, poorly fitted or top-dose-only effect, or another doubt; inactive = no such curve, though single readings can be large; an effect the other way counts as inactive or inconclusive;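 also: plate controls were neutral wells for no effect and buffer without enzyme for full effect; nearly all actives have a fitted effect of over 40% in size; top concentration of the series not given in the record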
Target sequence (P25779 123-467 limits assumed): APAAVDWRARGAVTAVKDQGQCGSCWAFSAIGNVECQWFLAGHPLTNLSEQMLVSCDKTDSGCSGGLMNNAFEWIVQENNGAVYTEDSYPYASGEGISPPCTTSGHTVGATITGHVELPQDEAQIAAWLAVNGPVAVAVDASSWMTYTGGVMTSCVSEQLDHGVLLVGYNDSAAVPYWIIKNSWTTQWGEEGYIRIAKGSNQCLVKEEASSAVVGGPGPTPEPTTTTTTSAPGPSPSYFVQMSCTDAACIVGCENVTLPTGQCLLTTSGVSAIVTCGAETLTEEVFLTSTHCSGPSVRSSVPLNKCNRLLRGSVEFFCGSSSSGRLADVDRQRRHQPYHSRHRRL
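Cysteine protease activity tested under reducing, mildly acidic conditions (100 mM sodium acetate pH 5.5, 5 mM DTT) plus 0.01% Triton X-100. Cruzain 1.5 nM; substrate Z-FR-AMC 2 uM; 15 min compound preincubation at room temperature.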
NS1 function inh = qHTS Assay for Inhibitors of Influenza NS1 Protein Function. S. cerevisiae slowed by influenza A NS1, growth recovery by OD600. Potency, µM (series often up to 46.1 µM), for the others: at the top dose activity, positive = more growth. 0.4% of 270,000 active; also: actives are rising curves; nearly all actives have a fitted effect of over 50% in size
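Recovery from NS1-induced slow growth read by OD600 in budding yeast switched to galactose assay medium (pH 6.0, -URA) at 1:100 dilution. Compound 23 nl per well; the matching strain lacking NS1 serves as control.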
SARS PLpro yeast = qHTS of Yeast-based Assay for SARS-CoV PLP; S. cerevisiae expressing SARS-CoV PLpro, growth rescue; control for the full effect not named in the record; Potency, µM (doses to about 32.9 µM), for the others: at the highest dose activity, positive = growth rescue; 0.19% of 330,000 active; also: 0% is about no effect; nearly all actives have a fitted effect of over 55% in size; growth read by luminescence after 48 h
Cruzain noTriton = qHTS Assay for Promiscuous and Specific Inhibitors of Cruzain (without detergent); Cruzipain (Trypanosoma cruzi), P25779; AID 1476, 2009; purified cruzain, Z-FR-AMC fluorescence, no detergent; Potency, µM, without a hit: max response, negative = inhibition, actives largely listed as inhibitors; 2.3% of 200,000 active; active = well fitted curve in the direction sought with a large enough effect; inconclusive = small, poorly fitted or top-dose-only effect, or another doubt; inactive = no such curve, though single readings can be large; an effect the other way counts as inactive or inconclusive;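 also: plate controls were enzyme without inhibitor for no effect and buffer without enzyme for full effect; nearly all actives have a fitted effect of over 40% in size; top concentration of the series not given in the record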
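Purified cruzain at 1.5 nM, pre-incubated 15 min with compound at room temperature in 100 mM sodium acetate pH 5.5, 5 mM DTT, 0.00005% Triton X-100. Reaction started with 2 uM Z-FR-AMC; AMC fluorescence increase over 60 s gives rate.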
Starred values were filed as active, the others as inactive; ? = inconclusive; . = no result given; & = joins results of further samples; [ ] = remark or other dose. Unless noted, calls follow the shape of the dose curve; as a rule, active means well fitted rising curve with a large enough effect; inconclusive means small, poorly fitted or top-dose-only effect; inactive means no such curve, though single readings can be large or run the other way. Potency is read from the fitted curve at half-maximal effect.

cpd	Compound	RE007 growth inh	Lassa entry inh	MARV entry inh	2A StopGo	Cruzain inh Det	NS1 function inh	SARS PLpro yeast	Cruzain noTriton
1	O=C1c2cccnc2C(=O)N1Cc1ccc(S(=O)(=O)N2CCN(c3ccccc3)CC2)cc1	19.5%	-0.7%[46.1 µM]	4.9%[46.1 µM]	-5.3%	.	-4.9%	-5.3%	.
2	O=C(Nc1ccc(-n2cnnn2)cc1)C1CCCCC1	2.2%	-2.7%	0.7%	-12.6%	1.1%	0.9%	-5.1%	6.7%
3	O=C(NCc1ccc(Cl)cc1)NC1COc2ccccc2C1 (stereo not given)	.	-1.1%[46.1 µM]	.	-2.6%	2.7%	.	.	-13.8%
4	C=CCn1c(NCc2cc(Cl)ccc2O)nc2ccccc21	-4.8%	?	?	22.6%	.	-29.5%	-0.5%	.
5	CSC1CCCCC1(O)CSc1nc2c(cc1C#N)CCCC2 (stereo not given)	6.8%	-19.4%	-2.8%	.	2.9%	1.8%	3.9%	2.8%
6	CCn1nc(C)c(Br)c1C(=O)Sc1ccccc1Cl	-3.1%	2.6%	-9.9%[46.1 µM]	22.4µM*	.	-1.1%	-0.4%	.
7	CC(C)NC(=O)NC(=O)COC(=O)Cc1c(F)cccc1Cl	-0.1%	?	-2.1%	-14.1%	.	.	1.2%	.
8	COCCN(C(=O)/C=C/c1ccccc1)c1c(N)n(Cc2ccccc2)c(=O)[nH]c1=O	12.8%	.	.	-21.8%	.	0.5%	-2.6%	.
9	CCC1=C/C(=C/c2sc3ccccc3[n+]2CC)CC(C)(C)C1	-11.8%	4.1%[46.1 µM]	-32.6%[46.1 µM]	?	.	.	-5.7%	.
10	CC(=O)C1=C(O)C(=O)N(c2cccc(Br)c2)C1c1ccccc1Cl (stereo not given)	-16.7%	13.4%[46.1 µM]	7.5%[46.1 µM]	-1.0%	.	?	1.8%	.
11	COc1cc2c(cc1OC)[C@H](C)N(C(=O)COc1ccccc1)CC2	7.9%	.	.	-26.1%	.	-7.3%	-0.2%	.
12	Cc1ccccc1CC(=O)NC1CCN(C)CC1	2.6%	1.2%[46.1 µM]	?	-4.7%	.	-12.5%	-1.7%	.
13	Cc1cccc(C)c1NC(=O)Cn1c(=O)c2cccn2c2ccccc21	0.6%	.	.	-27.5%	.	1.3%	5.7%	.
14	Cc1nc2nc(CNC(=O)c3cccc(F)c3)nn2c(C)c1CCC(=O)Nc1ccc(F)cc1	.	7.3%[46.1 µM]	?	1.3%	-6.2%	.	.	-13.7%
15	COc1ccc(C(CNc2ccc(S(C)(=O)=O)cc2[N+](=O)[O-])N(C)C)cc1OC (stereo not given)	73.4%	5.7%[46.1 µM]	-3.0%[46.1 µM]	-6.4%	.	-3.7%	1.7%	.
16	O=C1CN2NC(=S)N(c3ccc(Cl)cc3)C2=CN1c1ccc(Cl)cc1	8.2%	.	.	-12.9%	.	0.3%	-0.5%	.
17	COc1ccc(C(=O)NCc2nnc(SCC(=O)Nc3cc(OC)ccc3OC)o2)cc1	-6.6%	.	.	14.4%	.	-4.8%	-0.7%	.
18	CCOC(=O)c1cnc2c(C)cc(C)cc2c1NCCCN1CCOCC1	3.1%	.	.	-16.4%	.	-11.3%	-8.2%	.
19	Cc1ccc(-c2noc(CN(C)C(=O)Nc3ccc(F)cc3)n2)cc1	4.3%	14.6%	-29.6%[46.1 µM]	-28.7%	.	-2.4%	0.0%	.
20	CCCC(=O)NC(=S)N1CCN(c2ccc([N+](=O)[O-])cc2)CC1	-8.2%	-0.4%	?	-20.0%	-12.2%	6.6%	-4.5%	-2.0%
21	O=C(c1ccc(Cl)cc1)N(Cc1ccco1)Cc1ccco1	.	10.6%[46.1 µM]	0.0%[46.1 µM]	12.1%	-5.3%	.	.	-10.9%
22	Cc1ccccc1C(=O)N/N=C/c1ccc(OCC(=O)N2CCCCC2)cc1	9.9%	4.8%	-2.0%	.	-10.0%	2.5%	-0.7%	1.9%
23	CCCn1c(NCc2cccc(OC)c2OC)nc2ccccc21	24.4%	-2.0%	?	18.9%	4.7%	-2.4%	-2.0%	6.9%
24	Cc1ccc(NC(=O)CN2CCC(NC(=O)c3cccc(F)c3)CC2)cc1C	6.1%	.	.	-4.3%	.	1.4%	-1.6%	.
25	Cn1c(SCC(=O)Nc2ccc3c(c2)CCC3)nnc1C1CC1	0.3%	11.1%	?	-18.4%	.	.	16.2%	.
26	COc1ccc(-c2nc3sc(CCNC(=O)c4ccc(C(C)(C)C)cc4)c(C)n3n2)cc1	.	6.8%[46.1 µM]	.	30.1%[activator]	3.0%	.	.	-22.6%
27	CN1CC=C(c2c[nH]c3ccccc23)CC1	-3.8%	.	.	1.6%	-2.3%	?	-13.6%	-6.9%
28	Cc1ccccc1-n1nc(C)c2c1NC(=O)CSC2c1ccc(N(C)C)cc1 (stereo not given)	.	-3.9%[46.1 µM]	11.1%[46.1 µM]	-25.1%	-6.4%	.	.	6.2%
29	CCc1nnc(NC(=O)CSc2nnc(CNc3ccc(C)cc3)n2C)s1	-16.5%	.	.	12.5%	.	9.0%	-0.3%	.
30	Nc1c(C(=O)Nc2ccccc2)sc2nc3c(c(-c4ccco4)c12)CCCC3	-19.7%	-17.7%	1.2%[46.1 µM]	-14.4%	2.2%	13.5%	7.3%	-29.3%
31	FC(F)Oc1cccc(NC(=S)N2CCN(c3ccccn3)CC2)c1	-11.9%	?	-2.7%	-16.9%	.	-1.2%	-2.3%	.
32	COc1ccc2nc(NC(=O)c3ccc(Br)s3)sc2c1	-6.4%	-17.4%	-2.1%	33.5%[activator]	-2.9%	-2.8%	-1.8%	8.2%
33	O=C(CSc1nnc(NC(=O)c2ccccc2C(=O)O)s1)Nc1ccccc1Cl	-19.1%	-8.2%	27.7%[46.1 µM]	5.9%	.	.	-0.6%	.
34	COC(=O)c1scc(C)c1N/N=C(\C)c1ccc(F)cc1	-1.3%	8.6%	0.9%	-8.9%	-11.4%	-1.0%	0.8%	-5.0%
35	COc1ccccc1N(CC(=O)NCCSc1ccccc1)S(=O)(=O)c1ccccc1	0.5%	14.1%	-48.5%	-21.9%	.	.	.	.
36	Cc1nn(C)c(C)c1/C=N/NC(=O)CCn1nc(C)c([N+](=O)[O-])c1C	.	5.2%	1.3%	0.0%	-2.9%	-2.5%	22.2%	-9.6%
37	CCC(=O)Nc1ccc(C(=O)CSc2nnc(-c3ccc(O)cc3)n2CC2CCCO2)cc1 (stereo not given)	-11.1%	?	13.1%	-2.2%	-6.2%	-1.3%	0.4%	-8.6%
38	CCC(C)NCC(=O)Nc1ccc(S(N)(=O)=O)cc1 (stereo not given)	23.6%	-14.6%	8.2%[46.1 µM]	-14.3%	.	0.0%	-0.6%	.
39	CCC(C)[C@H](NC(=O)N1CCC(Cc2ccccc2)CC1)C(=O)O (stereo not given in full)	-4.7%	.	.	-0.4%	.	3.9%	2.7%	.
40	Cc1ccc(-n2c(=O)c3c(C)c(C(=O)N(C)C)sc3n(CC(=O)N(C)c3ccccc3)c2=O)cc1C	.	8.2%[46.1 µM]	.	-13.9%	-0.8%	.	.	?
41	Cc1nn(C(=O)c2cccc(Cl)c2)c(C)c1S(=O)(=O)N1CCOCC1	.	29.4%[46.1 µM]	.	?	-2.6%	.	.	15.6%
42	CCCCCN(C(=O)CCC(=O)OCc1cccc(Cl)c1)c1c(N)n(CCCC)c(=O)[nH]c1=O	13.6%	-2.6%[46.1 µM]	-16.9%	-6.1%	.	.	4.1%	.
43	COc1cc(OC)c(NC(=O)CCc2c(C)nc3cc(-c4ccccc4OC)nn3c2C)cc1Cl	.	21.3%[46.1 µM]	?	10.4%	2.4%	.	.	?
44	Cc1ccc(-c2onc(C)c2C)cc1S(=O)(=O)Nc1ccc(Cl)cn1	.	14.0%[46.1 µM]	.	61.3%[activator]	-3.4%	.	.	-10.8%
45	Cc1cc(Cl)nc2ccc(Cc3ccc4nc(Cl)cc(C)c4c3)cc12	.	.	.	?	-2.1%	0.0%&-1.5%	0.3%	-14.2%
46	CCCCCCC(=O)N/N=C/c1c(O)n(C2CC2)c(=S)[nH]c1=O	-21.6%	-9.2%	?	-14.9%	.	1.0%	-0.3%	.
47	Cc1nnc(NC(=O)CSc2nnc3c(n2)[nH]c2ccccc23)s1	.	-18.8%[46.1 µM]	.	-21.1%	-2.8%	.	.	4.8%
48	CS(=O)(=O)Nc1ccc2c3c(cccc13)CC2	-8.6%	5.2%	-17.7%	0.0%	-1.9%	-6.7%	-1.2%	5.9%
49	COc1ccccc1C(=O)NNC(=O)CCC(=O)NCc1ccccc1	7.1%	-6.2%	?	-25.1%	.	1.5%	0.0%	.
50	CC(=O)c1ccc(OC(NC(=O)c2ccco2)C(Cl)(Cl)Cl)cc1 (stereo not given)	8.3%	0.5%	?	.	3.1%	3.3%	-2.9%	4.7%

Later entries
cpd	Compound	RE007 growth inh	Lassa entry inh	MARV entry inh	2A StopGo	Cruzain inh Det	NS1 function inh	SARS PLpro yeast	Cruzain noTriton
51	Cc1cc(Nc2ccc3c(c2)OCCO3)c2ccccc2n1	4.2%	9.5%	?	-17.9%	-0.9%	-8.2%	-12.8%	1.3%
52	CCOC(=O)CN=C1CC(C)(C)CC2=C1Sc1ncnc(N(C)C)c1N2	-7.0%	4.1%	-12.8%	12.4%	-7.1%	-4.6%	-4.7%	-9.2%
53	COc1ccc(C(=O)c2cn(Cc3ccccc3F)c3cc4c(cc3c2=O)OCO4)cc1	.	5.2%[46.1 µM]	4.0%[46.1 µM]	0.0%	-0.3%	.	.	-9.9%
54	CS(=O)(=O)N1N=C(c2cccs2)CC1c1ccc(F)cc1 (stereo not given)	0.6%	.	.	17.4%	.	7.6%	-0.6%	.
